Resorufin autofl: qHTS Assay for Spectroscopic Profiling in Resorufin Spectral Region; Compound fluorescence, resorufin region 547/598 nm, buffer; active compounds read high; 59,000 compounds, 0.04% hits; max dye-equivalent concentration, M; AID 588, 2007; active = above 10 nM dye equivalent; inconclusive = 1 to 10 nM; inactive = 1 nM or less; a few of its hits are not listed in these tables; also: highest value over a series up to 38 µM
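Read-out: intrinsic compound fluorescence at ex 547/em 598 nm after 15 min at RT in pH 8.0 Tris (100 mM). Values expressed as resorufin-equivalent concentration from per-plate standard series.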
A488 autofl: qHTS Assay for Spectroscopic Profiling in A488 Spectral Region | 59,000 compounds, 0.1% hits | compound autofluorescence, A488 spectral region, dye equivalency; active compounds read high | max dye equivalency, M; active = above 10 nM dye equivalent; inconclusive = 1 to 10 nM; inactive = 1 nM or less; about half of its hits are not listed in these tables;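 also: highest value over a series up to 38 µM; compound alone in buffer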
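Autofluorescence read at ex 480/em 540 nm after 15 min RT in 100 mM Tris pH 8.0; compound signal normalized to A488 standard series on each plate, reported as dye-equivalent concentration at each test concentration.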
AID923: qHTS Assay for Allosteric/Competitive Inhibitors of Caspase-1: Spectroscopic Profiling in AFC Spectral Region | 75,000 compounds, 1.1% hits | Potency, µM (top dose mostly 57.5 µM), inactives show at the top dose fluorescence increase, actives largely listed as activators | compound fluorescence, AFC spectral region (405/520 nm); almost no hit is shown here; active = well fitted activation curve with a large enough effect; inconclusive = small, poorly fitted or top-dose-only effect;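 also: potency is read from the fitted curve at half-maximal effect; 0% is about no effect; scaled to a free AFC standard on each plate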
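Titrations up to 57 uM read every 20 sec for 3 min (405/520 nm) with 50 nM caspase 1 and 5 uM Ac-WEHD-AFC, pH 7.5 HEPES buffer. Fluorescence-vs-time intercept gave baseline, scaled against on-plate AFC standard.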
A647 autofl: qHTS Assay for Spectroscopic Profiling in A647 Spectral Region. Compound fluorescence, A647 channel (570/671 nm), Tris buffer. AID 592, 2007. 59,000 tested, under 10 active. max dye-equivalent concentration, M; active means above 1 µM dye equivalent; inconclusive means 0.1 to 1 µM; inactive means 0.1 µM or less;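 also: values scaled relative to a standard on each plate; highest value over a series up to 38 µM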
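Compound fluorescence was measured in 100 mM Tris buffer, pH 8.0, after 15 min at room temperature, using 570 nm excitation and 671 nm emission filters. Signal was normalized to a per-plate Alexa 647 standard curve and expressed as dye-equivalent concentration at each compound concentration.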
TSHR ag: qHTS Assay for Agonists of the Thyroid Stimulating Hormone Receptor | Thyrotropin receptor (Homo sapiens), P16473 | HEK293-CNG-TSHR cells (CNG channel as cAMP sensor), membrane potential dye, cAMP | Potency, µM (doses to about 57.1 µM), for inactives: at the highest dose activation, hits mostly activators | 73,000 compounds, 0.48% hits; active = well fitted activation curve of enough size with the parental cells flat; inconclusive = any curve in the parental cells; inactive = parental cells flat and receptor cells flat or falling; also: potency is read from the fitted curve at half-maximal effect; % of control where 0% means no effect; weak receptor curves with flat parental cells got no call and are not listed
Target sequence (P16473 whole entry, looked up): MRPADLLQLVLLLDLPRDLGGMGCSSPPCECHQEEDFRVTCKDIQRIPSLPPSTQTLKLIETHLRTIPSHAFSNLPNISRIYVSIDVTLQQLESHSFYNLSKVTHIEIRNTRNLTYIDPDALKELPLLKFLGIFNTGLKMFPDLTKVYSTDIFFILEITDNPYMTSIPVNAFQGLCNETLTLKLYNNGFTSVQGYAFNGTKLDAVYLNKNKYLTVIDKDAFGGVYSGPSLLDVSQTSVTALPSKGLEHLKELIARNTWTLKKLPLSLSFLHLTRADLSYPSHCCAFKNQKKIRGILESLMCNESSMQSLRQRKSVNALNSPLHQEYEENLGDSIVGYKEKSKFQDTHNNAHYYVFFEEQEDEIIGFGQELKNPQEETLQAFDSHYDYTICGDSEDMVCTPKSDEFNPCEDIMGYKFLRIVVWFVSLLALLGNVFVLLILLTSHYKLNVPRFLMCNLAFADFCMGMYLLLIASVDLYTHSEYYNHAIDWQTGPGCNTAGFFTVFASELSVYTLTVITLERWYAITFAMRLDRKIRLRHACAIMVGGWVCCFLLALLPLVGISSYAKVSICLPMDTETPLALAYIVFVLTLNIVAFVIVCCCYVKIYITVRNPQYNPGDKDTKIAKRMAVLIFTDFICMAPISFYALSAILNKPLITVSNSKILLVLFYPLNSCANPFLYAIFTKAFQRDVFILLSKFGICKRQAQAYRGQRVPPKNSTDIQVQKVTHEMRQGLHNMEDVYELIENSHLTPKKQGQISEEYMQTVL
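cAMP rise detected as CNG-channel membrane depolarization by fluorescent dye (emission 590 nm), 30 min after compound, following 60 min dye loading containing 100 uM RO 20-1724 at room temperature. Cells: TSHR/CNG HEK 293, with parental CNG HEK 293 as control.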
* marks the source's active call; other numbers are inactive results; i = inactive; ? = inconclusive; . = not tested or not shown; [ ] = dose if it differs, or a comment. A portion of the library; rates above refer to the full screens.

SMILES	Resorufin autofl	A488 autofl	AID923	A647 autofl	TSHR ag
CN1CCN(c2ncc3nc(CCc4ccccc4)c(=O)n(Cc4cccs4)c3n2)CC1	i	i	12.3%	9.1e-09	?
O=C(c1ccccc1C(F)(F)F)N1CCN(S(=O)(=O)c2ccccc2)CC1	i	i	-0.8%	2.9e-09	-1.6%
CCCOC(=O)CSc1nnc(-c2ccccc2Cl)o1	i	i	0.7%	2.3e-08	7.0%
c1ccc(CCc2nn3c(Cc4ccccc4)nnc3s2)cc1	i	i	0.1%	2.85e-08	-15.1%
COc1ccc(OC)c(C(=O)CSc2nnc(-c3ccc(OC)c(OC)c3)o2)c1	i	i	-0.6%	2e-09	-0.5%
Cc1ccc(-c2csc(N)n2)s1	i	i	0.4%	1e-09	14.9%[11.4 µM]
O=C(Oc1cccnc1)c1ccc(Cl)c(Cl)c1	i	i	0.3%	2.35e-08	0.1%
COc1ccc(NC(=O)c2oc3ccccc3c2NC(=O)c2ccco2)c(OC)c1	i	i	7.4%	4.38e-08	2.9%
c1ccc(OCc2nc(-c3ccccc3)no2)cc1	i	i	-1.3%	1e-09	8.4%
COc1ccc(-c2cc(C(F)(F)F)nc(N3CCN(C)CC3)n2)cc1	i	i	1.2%	3.04e-08	23.1%
CCCCOc1ccc(C2C3CN(C(=O)OCC)CC=C3C(C#N)=C(N)C2(C#N)C#N)cc1OC (centres undefined)	i	i	3.1%	1.2e-09	11.8%
COc1cc2c(cc1OC)CN(CC(=O)NC(=O)NCc1ccco1)CC2	i	i	17.8%	1e-09	-5.6%
Cc1cc(C(=O)CN2CC(C)OC(C)C2)c(C)n1-c1ccccc1 (centres undefined)	.	.	3.1%	.	8.4%
CC(C)(C)n1c(=O)[nH]c2c(c1=O)CCC2	i	i	-1.6%	6.1e-09	-1.5%
O=C(NCc1cccnc1)c1cccc(S(=O)(=O)N2CCOCC2)c1	.	.	-0.3%	.	4.8%
COc1nc(-c2ccccc2)cc(-c2ccccc2)n1	i	i	-0.1%	1.69e-08	?
CCN(CC)CCNC(=O)Cn1c(-c2ccccn2)nc2ccccc21	i	i	-0.5%	1.39e-08	.
CCCC(=O)N=C1SC2CS(=O)(=O)CC2N1c1ccc(C(C)=O)cc1 (centres undefined)	i	i	-1.2%	5.9e-09	5.8%
C=CCn1cc(C(=O)NCc2cccnc2)c(=O)c2cc(S(=O)(=O)N(CC)CC)ccc21	.	.	1.1%	.	10.5%
CC(C)CN1CC2(CCN(C(=O)c3cnccn3)CC2)C1	i	i	1.9%	1e-09	6.2%
COc1cc2[nH]c(=O)n(CCCCCC(=O)N3CCN(c4ccccc4)CC3)c(=O)c2cc1OC	i	i	0.4%	4e-09	0.5%
Cc1cc2n(n1)C(c1ccc(O)cc1)Nc1ccccc1-2 (centres undefined)	i	i	7.5%	1e-09	0.6%
CN(C)c1ccc(CNC(=O)C2(C)C=CCN2C(=O)c2ccccc2)cc1 (centres undefined)	.	.	-1.0%	.	15.3%
CC12CC(c3ccccc3O1)C(C(=O)N1CCOCC1)C(=O)N2 (centres undefined)	.	.	-4.6%	.	9.6%
O=C(O)Cn1c(=O)oc2cc(S(=O)(=O)NC3CCCCC3)ccc21	.	.	0.1%	.	3.1%
O=P(O)(CN1CCCCCC1)CN1CCCCCC1	.	.	1.4%	.	3.3%
O=C1c2ccccc2C(=O)N1C/C=C/CN1C(=O)c2ccccc2C1=O	.	.	-2.1%	.	5.6%
CCCCOc1ccc(NC(=O)C2CC=CCC2C(=O)O)cc1 (centres undefined)	.	.	-2.1%	.	-8.3%
COC(=O)[C@@H](NC(=O)Nc1ccc(C(C)=O)cc1)C(C)C	i	i	-1.5%	3.96e-08	2.5%
CC(C)c1ccc(NC(=O)N2CCC(c3nc4ccccc4o3)CC2)cc1	i	i	-3.5%	3.61e-08	13.2%
Cc1ccccc1Cn1c(=O)n(Cc2ccco2)c(=O)c2ccccc21	i	i	0.5%	1e-09	?
COCCNC(=O)CN(C(=O)CCC(=O)Nc1ccccn1)c1ccc(F)c(Cl)c1	i	i	-1.6%	4.2e-09	-4.8%
Cc1cc(C(=O)Nc2ccc3c(c2)OCO3)cs1	i	i	0.9%	2.75e-08	9.3%
CSCCC(NC(=O)c1ccccc1)C(=O)NC1CCCC1 (centres undefined)	i	i	0.2%	1e-09	-0.3%
COc1ccccc1S(=O)(=O)Cc1ccc(C(=O)N2CCN(c3cccc(Cl)c3)CC2)o1	i	i	1.5%	1.04e-08	?
CCCn1c2ccccc2c2nnc(SCC(=O)OC)nc21	.	.	0.0%	.	17.6%[11.4 µM]
Cc1ccc(-n2nc(C)c(C3C(C#N)=C(N)OC4=C3C(=O)CCC4)c2Cl)cc1 (centres undefined)	i	i	-2.7%	9.3e-09	15.7%
COc1ccc(Cl)cc1C(=O)Nn1cnc2ccccc2c1=O	i	i	-0.5%	1.35e-08	?
Cc1ccc2[nH]cc(C(=O)CN3CCN(c4ccccn4)CC3)c2c1	i	i	6.6%	1e-09	-8.0%
COc1ccc(Nc2nc(C)cc(C)c2C#N)cc1OC	.	.	2.2%	.	?
COc1ccc(C2C(C#N)=C(C)NC3=C2C(=O)c2ccccc23)cc1 (centres undefined)	i	i	.	2.71e-08	.
CC(C)CO/N=C1/[C@H]2O[C@@H]2[C@@H](O)[C@H]2[C@H]1CCn1c(=O)n(-c3ccccc3)c(=O)n12	.	.	0.0%[11.5 µM]	.	0.1%[11.4 µM]
CCOC(=O)/C(C#N)=C1/CCCCCN1C	i	i	1.0%	1.06e-08	7.3%
CCOC(=O)Oc1ccc2oc(C)c(C(=O)OCCOC)c2c1	i	i	-0.8%	4.5e-09	10.7%[11.4 µM]
COc1ccc(NC(=O)C2=C(C)C(=O)OC23CCC(C)CC3)c(OC)c1 (centres undefined)	.	.	-0.3%	.	?
Nc1nc(-c2ccccc2)cc(C(F)(F)F)n1	i	i	-0.4%	1e-09	-1.1%
Cc1nnc2n(Cc3ccccc3)c(=O)c3c4c(sc3n12)COC(C)(C)C4	i	i	0.5%	1.3e-09	?
O=C(CSc1nnc2scc(-c3ccccc3)n12)Nc1ccc2c(c1)OCCO2	i	i	1.0%	2.52e-08	11.0%
COC(=O)N1CCC2(CCCN(C(=O)Nc3ccc(OC)cc3)C2)CC1	i	i	0.0%	6.4e-09	4.3%
CCOC(=O)c1ccc(NC(=O)CSc2nnc(COc3ccccc3)n2C)cc1	i	i	-1.1%	5.7e-09	-9.3%
(list continues)
SMILES	Resorufin autofl	A488 autofl	AID923	A647 autofl	TSHR ag
CCOC(=O)CSc1nc2cc3c(cc2cc1C#N)OCO3	i	i	10.0%	2.13e-08	?
Clc1ccccc1OCCn1cnc2ccccc21	i	i	2.4%	1e-09	9.8%
CCOC(=O)C1C(=O)Nc2nc3ccccc3n2C1C(C)C (centres undefined)	i	i	-0.5%	3.73e-08	-0.5%
COc1nnnc2c1sc1nc(N3CCOCC3)c3c(c12)CC(C)(C)OC3	i	i	.	5.1e-08	.
O=C(COC(=O)Cn1[nH]c(=O)c2ccccc2c1=O)Nc1ccc2c(c1)OCO2	i	i	0.5%	2.41e-08	13.9%
COc1cccc(CNC(=O)C2CCN(S(=O)(=O)c3cnc[nH]3)CC2)c1	i	i	-0.8%	8.6e-09	-4.7%
CCc1cc(=O)oc2cc(OCC(=O)O)c(Cl)cc12	i	i	0.8%	8.7e-09	2.1%
O=C(CSc1nnc(-c2cccs2)n1-c1ccccc1)N1CCN(C(=O)c2ccco2)CC1	i	i	0.1%	3.1e-09	?
c1ccc(CN2CCC3(CC2)Nc2ccccc2CO3)cc1	i	i	-1.8%	8.2e-09	22.5%
COc1ccc(N2CCN(C(=O)CSc3nnc(-c4ccc5[nH]c(C)c(C)c5c4)o3)CC2)cc1	i	i	-0.2%	6.1e-09	-12.7%
CC1=CC(C)(C)N=C(Nc2ccc(C)cc2)S1	i	i	-1.8%	9.8e-09	?
COC(=O)c1ccc(CNC(=O)CNc2cc(C(F)(F)F)ccc2N2CCOCC2)cc1	i	i	-0.9%	6.4e-09	-6.6%
CC(C)Oc1ccc(C2CNC(=O)C2)cc1 (centres undefined)	.	.	-0.3%	.	?
O=C(NCc1cccnc1)[C@@H]1[C@@H](C(=O)O)[C@H]2CC[C@@H]1O2	i	i	1.9%[11.5 µM]	3.04e-08	?
C=CCC1C=CC(Oc2ccc(OC)cc2)C(COC(=O)c2ccc(Br)cc2)O1 (centres undefined)	.	.	0.2%[11.5 µM]	.	7.8%[11.4 µM]
CC(=O)c1cccc(NC(=O)C2CCN(S(C)(=O)=O)CC2)c1	i	i	-2.0%	1e-09	2.7%
O=C(Nc1cccc(Cl)c1)N1CCN(c2ncccn2)CC1	i	i	0.1%	1.46e-08	1.4%
COc1ccc2[nH]c3c(=O)n(Cc4ccco4)cnc3c2c1	i	i	-1.1%	6.4e-09	-0.2%
COc1cccc(-c2nc(NCc3ccco3)c3ccccc3n2)c1O	i	i	.	2.57e-08	.
COc1cccc(C(=O)CSc2nnc(-c3cc(OC)c(OC)c(OC)c3)o2)c1	i	i	1.6%	1e-09	.

Sorted by value in AID923 (smallest number first): some entries from above
canonical_smiles | AID923
CC(C)c1ccc(NC(=O)N2CCC(c3nc4ccccc4o3)CC2)cc1 | -3.5%
COCCNC(=O)CN(C(=O)CCC(=O)Nc1ccccn1)c1ccc(F)c(Cl)c1 | -1.6%
Cc1ccc(-c2csc(N)n2)s1 | 0.4%
COc1ccc(Nc2nc(C)cc(C)c2C#N)cc1OC | 2.2%

More entries follow:
SMILES	Resorufin autofl	A488 autofl	AID923	A647 autofl	TSHR ag
Cn1c(=O)cc(SCC(=O)N2CCCC2)c2ccccc21	i	i	0.0%	1e-09	.
Cc1nc(CC(=O)c2c(C)cc(O)cc2O)cs1	.	.	2.4%	.	17.1%
O=S(=O)(c1cccc(-c2nnc(SC(F)F)n2-c2ccccc2)c1)N1CCCCC1	i	i	0.0%	1e-09	?
CCCOc1ccc(C2C(=O)N(C3CCCCC3)CC(=O)N2CCCOCC)cc1OC (centres undefined)	i	i	0.0%	8.3e-09	13.5%
CC1N=C2c3ccccc3N=C(SCc3cc(=O)n4cc(Cl)ccc4n3)N2C1=O (centres undefined)	i	i	1.3%	1.35e-08	8.6%
Cc1occc1C(=O)NCCCCNC(=O)c1ccoc1C	i	i	-2.5%	1e-09	?
O=C(O)CCS(=O)(=O)Cc1cccc(Cl)c1	i	i	-2.5%	3.04e-08	1.4%
Cn1c(Cn2nnc3ccccc32)nnc1SCC(=O)Nc1ccc2c(c1)OCO2	i	i	0.5%	4.5e-09	-8.7%
CCCOCC(C)OCC(C)O (centres undefined)	.	.	-3.8%	.	0.6%
CCOC(=O)CSc1nnc(CNC(=O)c2cc(OCC)c(OCC)c(OCC)c2)n1C	i	i	-1.0%	3.4e-09	-1.8%
CN1CCCC(OC(=O)COc2ccc(Br)cc2)C1 (centres undefined)	i	i	2.2%	2.1e-09	5.2%
CCOC(=O)C1C(=O)NC(N2CCN(Cc3ccccc3)CC2)=NC1c1ccco1 (centres undefined)	i	i	-0.6%	1.99e-08	0.1%
O=C(CCC(=O)OCCCC(F)(F)C(F)(F)F)NC1CCCCC1	.	.	0.9%	.	8.8%
O=C(Nc1nc2ccc(S(=O)(=O)N3CCCC3)cc2s1)c1cccs1	i	i	-0.1%	1e-09	?

Assay outcomes from PubChem.
